BasE inh – BasE siderophore enzyme inhibitors, primary screen, biochemical, Acinetobacter baumannii ATCC 17978, fluorescence polarization; purified BasE, fluorescence polarization binding displacement; inhibition, % (no concentration beside the values); 84,000 compounds, 0.1% hits; AID 485350, 2010;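 active = both replicates above 25% with normal brightness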;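 also: 0% = negative plate control signal and 100% = positive plate control signal; stock transfer was 100 nL into about 30 µL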
LANA-nucl inh – inhibitors of KSHV LANA-nucleosome binding, primary screen, biochemical, fluorescence polarization, FITC-LANA1-23, chicken nucleosomes; 51,000 compounds, 0.3% hits; FITC-LANA1-23 / chicken nucleosome fluorescence polarization; active compounds read low; z-score (no concentration beside the values);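 active = both repeat wells score below -2 in polarization z-score versus plate sample wells, excluding overly bright wells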;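 also: 100 nL library stock added to about 30 µL; numbers are from one replicate; some results filed as inactive read as strong as hits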
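Assay system: FITC-LANA peptide and chicken nucleosomes; input: 240 nM purified chicken nucleosomes (480 nM peptide binding sites), final; also added: 50 nM FITC-LANA1-23 probe; medium: TEN-BT buffer, pH 7.5; doses: pin-transferred compound, 100 nL; times: 10–45 min, room temperature; technique: fluorescence polarization; replication: duplicates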
Starred values were filed as active, the others as inactive; & = joins results of further samples.

SMILES	BasE inh	LANA-nucl inh
CC(C)C[C@@H](CN)CC(=O)O	1.5	0.17&-0.17

Source: PubChem

Only part of the results is shown; count on the stated rates, not on these rows.
